Assay outcomes deposited in PubChem by National Center for Advancing Translational Sciences (NCATS).
VDR inh: inhibitors of human vitamin D receptor; P11473; VDR-SRC2-3 peptide fluorescence polarization, 2 h; Potency, µM, inactives show max response, negative = inhibition, actives largely listed as inhibitors; 0.93% of 400,000 active; active means well fitted inhibition curve with a large enough effect; inconclusive means small, poorly fitted or top-dose-only effect, or another doubt; inactive means no such curve, though single readings can be large or run the other way; further: series mostly up to about 120 µM
Target sequence (P11473 whole entry, looked up): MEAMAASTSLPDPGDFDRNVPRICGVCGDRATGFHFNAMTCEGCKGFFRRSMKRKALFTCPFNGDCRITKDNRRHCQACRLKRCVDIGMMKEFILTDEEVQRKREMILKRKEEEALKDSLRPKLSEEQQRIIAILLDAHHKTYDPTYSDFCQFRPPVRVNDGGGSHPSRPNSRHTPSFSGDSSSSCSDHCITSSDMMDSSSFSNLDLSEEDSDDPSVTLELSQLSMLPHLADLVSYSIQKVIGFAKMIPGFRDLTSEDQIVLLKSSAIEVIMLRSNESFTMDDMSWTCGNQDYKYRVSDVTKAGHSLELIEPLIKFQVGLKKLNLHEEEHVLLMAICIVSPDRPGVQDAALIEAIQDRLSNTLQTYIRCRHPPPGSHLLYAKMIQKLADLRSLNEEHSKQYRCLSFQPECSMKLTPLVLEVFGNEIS
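After 23 nl compound addition and a short centrifugation, plates sat for 2 hours at ambient temperature; polarization of fluorescence then indicated loss of VDR binding to peptide SRC2-3.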
Starred values were filed as active, the others as inactive; ? = inconclusive. On the % scale 0 is the no-effect control and ±100 the full control effect; potency means the concentration at half of the fitted maximal effect.

Start of the data: the first 3 entries, to show the layout:
mol	VDR inh
CCOC(=O)/C(=C\c1ccc([N+](=O)[O-])o1)NC(=O)c1ccccc1	-3.4%
Cc1cc(C)n(-c2nc3ccccc3nc2N2CCN(c3cccc(C)c3C)CC2)n1	-13.0%
COc1ccc(C(=O)N(C)Cc2ccccn2)cc1OC1CCN(C(C)C)CC1	-2.2%

All compounds of this part, previewed entries included:
mol	VDR inh
CCOC(=O)/C(=C\c1ccc([N+](=O)[O-])o1)NC(=O)c1ccccc1	-3.4%
Cc1cc(C)n(-c2nc3ccccc3nc2N2CCN(c3cccc(C)c3C)CC2)n1	-13.0%
COc1ccc(C(=O)N(C)Cc2ccccn2)cc1OC1CCN(C(C)C)CC1	-2.2%
CC1(C)CC(=O)C2=C(C1)OC(N)=C(C#N)C2c1cccc(OC(=O)c2ccco2)c1 (stereo not given)	4.4%
Cc1nc(CNC(=O)CC2C(=O)NCCN2Cc2cccc(Oc3ccccc3)c2)cs1 (stereo not given)	-19.9%
O=C(O)COc1ccc(/C=N/NC(=O)c2cn(-c3ccccc3)nc2-c2ccccc2)cc1	-4.9%
CCOc1ccc(C=NNC(=O)c2ccc(-n3cnnn3)cc2)cc1	2.6%
CCOC(=O)c1cc(C(=O)OCC)c(=O)[nH]c1N1CCCC1	0.7%
CN(C)c1ccc(/C=N/N(Cc2ccccc2)c2ccccc2)cc1	-8.1%
Clc1cccc(CSc2ncn(-c3ccccc3)n2)c1	-6.7%
O=C(NCC1CC1)Nc1ccccc1F	-5.9%
O=C(c1ccccc1Br)N1CCN(c2ccc([N+](=O)[O-])c(N3CCOCC3)c2)CC1	13.6%
C=CCN1C(=O)C(Cc2ccc(C)cc2)S/C1=N/N=C/c1ccco1 (stereo not given)	-20.8%
N#Cc1ccc(NC(=O)CNc2cc(S(=O)(=O)N3CCOCC3)ccc2NCC2CCCO2)cc1 (stereo not given)	-12.6%
O=C(CSc1nnc(CNC(=O)c2ccco2)o1)Nc1cccc(F)c1	-5.9%

mol	VDR inh
Cc1ccc(C)c(OCC(=O)Nc2ccc(S(=O)(=O)Nc3ccccn3)cc2)c1C	-13.5%
CC(=O)Nc1ccc(NC(=O)CSc2ncnc3c2cnn3Cc2ccccc2)cc1	-3.0%
O=C(N/C(=C\c1cccc([N+](=O)[O-])c1)C(=O)N1CCOCC1)c1cccc(Br)c1	?
CCCOc1ccc(C(O)C(CN2CCOCC2)c2ccccc2)cc1 (stereo not given)	24.1%
Nc1ccc(CCNc2ncnc3c2ncn3[C@@H]2O[C@H](CO)[C@@H](O)[C@H]2O)cc1	-2.5%
CCO[C@@H]1OC(C(=O)NC2CC2)=C[C@H](c2c[nH]c3ccccc23)[C@H]1CCCO	4.8%
CCCC(=O)OCC(=O)NC1CCCc2ccccc21 (stereo not given)	-3.4%
NC(=O)CC(NC(=O)Cc1cccc2ccccc12)c1ccc(N2CCN(c3ccccc3)CC2)c([N+](=O)[O-])c1 (stereo not given)	-2.4%
C=C(C)COc1ccc(-c2[nH]ncc2-c2ccccc2)c(O)c1	-4.6%
CC(C)Cc1nnc(NC(=O)CCC(=O)Nc2ccccc2F)s1	-4.6%
O=C(/C=C/c1ccc2ccccc2n1)c1cc(Br)ccc1O	?
CCc1ccccc1NC(=S)NCCSc1ccc(Cl)cc1	-2.4%
O=C(CSc1nnc2ccccn12)NC(=O)NC1CCCC1	11.4%
Cc1ccc2c(c1)c(=O)c(C(=O)c1ccccc1)cn2Cc1ccccc1F	6.0%
CCOc1ccccc1NC(=O)Cn1c(=O)n(Cc2ccccc2)c(=O)c2cccnc21	-0.2%

mol	VDR inh
CS(=O)(=O)c1ccc(C(=O)OCc2nnc(-c3ccc(Cl)cc3)o2)cc1[N+](=O)[O-]	25.1µM*
COc1ccc(S(=O)(=O)N2CCOCC2)cc1NC(=O)Cn1nnc2ccccc2c1=O	4.4%
CSc1nsc(SCC(=O)Nc2ccc(C(=O)O)cc2)n1	7.7%
COc1ccccc1CNC(=O)c1cc(-c2ccccc2)n[nH]1	2.2%
CCn1cc(C(=O)NC2CCCCCC2)c2cc(OC)c(OC)cc2c1=O	5.9%
Cc1cc2c(cc1S(=O)(=O)NCC(C)c1ccccc1)n(C)c(=O)c(=O)n2C (stereo not given)	-2.5%
Cc1cccc(-c2noc(CNC(=O)COc3ccccc3C)n2)c1	0.1%
C/C(CCc1ccc2c(c1)OCO2)=N\N=C1\NC(=O)CC(C(=O)Nc2ccc(C(=O)O)cc2)S1 (stereo not given)	-8.2%
O=C(Cn1ccc(NC(=O)OCc2ccccc2)nc1=O)NCc1ccc2[nH]ccc2c1	-17.0%
C/C(=N\O)c1ccc2c(c1)CC(C)O2 (stereo not given)	5.3%
CCCC1S/C(=N/N=C/c2ccc(C)cc2)N(Cc2ccc(OC)cc2)C1=O (stereo not given)	2.7%
CC12C(=O)N(c3ccc(OC(=O)c4ccco4)cc3)C(=O)C1C1c3ccccc3C2c2ccccc21 (stereo not given)	0.8%
COc1ccccc1-c1ccc(SCc2ccc(F)cc2)nn1	-1.3%
S=C(NCc1ccco1)NCc1ccco1	?
CC[C@H](CC[C@H](C)[C@@H]1CC[C@@H]2[C@H]3CC=C4C[C@@H](O)CC[C@]4(C)[C@H]3CC[C@]21C)C(C)C	-1.2%

mol	VDR inh
CC[C@@]1(C(=O)OC)N[C@H](CN(C)C(=O)Nc2ccc(C)cc2)[C@@H]2C(=O)N(C)C(=O)[C@@H]21	26.3%
Cc1ccc(NC(=O)NC(=O)CN2CCC(C(N)=O)CC2)c(C)c1	?
CCC(C)NC(=O)C1CCN(S(=O)(=O)N2CCOCC2)CC1 (stereo not given)	4.9%
O=C(Nc1nc2nc(-c3ccccc3)cc(=O)n2[nH]1)c1ccc(Cl)cc1	-9.8%
O=C(CNC(=O)c1ccccc1)NCc1ccc(Cl)cc1	20.5%
Cc1ccc(N(CC(=O)N2CCN(C3CCCCC3)CC2)S(=O)(=O)c2cccnc2)cc1	9.0%
Cc1nc(N)nc(C)c1Cc1ccccc1	-5.7%
CC(C)CCNC(=O)C1CCN(S(=O)(=O)c2ccc(-n3cnnn3)cc2)CC1	-5.6%
CCN(CC)C(=O)C1CCCN(Cc2ccccc2F)C1 (stereo not given)	-7.0%
CCS(=O)(=O)N1CCC(c2nc3ccccc3[nH]2)CC1	6.1%
COc1ccc(CNC(=O)c2c3c(nc4ccccc24)C(=O)N(C2CCCCC2)C3)cc1	4.1%
CN(C)CCNc1nc2sc3c(c2c(=O)n1-c1ccc(F)cc1)CCCCC3	5.7%
N#Cc1nc(-c2ccccc2F)oc1N1CCCCC1	4.5%
CCOC(=O)c1cc(-c2ccccc2)n(CC(=O)Nc2cc(Cl)c(OC)cc2OC)c1C	4.5%
O=c1c(S(=O)(=O)c2cccc(Cl)c2)cn(Cc2ccccc2)c2cc(N3CCOCC3)c(F)cc12	10.3%

mol	VDR inh
Cc1cc(C)n2nc(SCc3nnc(SCc4ccccc4)s3)nc2n1	-2.1%
O=C(Nc1ccc2c(c1)C(=O)N(CC1CCCO1)C2=O)c1ccc(Cl)c(Cl)c1 (stereo not given)	17.1%
CCC(C)NC(=O)CSC1=Nc2ccccc2C2=NC(c3ccccc3)C(=O)N12 (stereo not given)	-10.1%
Cc1nc2c(ncn2-c2ccccc2)c(=O)n1NC(=O)CN1CCCCC1	12.6%
O=C(NN=Cc1c(F)c(F)c(F)c(F)c1F)c1ccc(NS(=O)(=O)c2cccs2)cc1	5.6%
CC(NC(=O)COc1ccc(-c2nnco2)cc1)c1ccc(Cl)cc1Cl (stereo not given)	-1.4%
CN(C)c1ccc(-c2nnn(CC(=O)N3c4ccccc4CCc4ccccc43)n2)cc1	0.0%
O=S(=O)(c1ccc(F)cc1)N1CCCC(c2nc(-c3ccc(F)cc3)no2)C1 (stereo not given)	-14.5%
O=C(CCCc1ccccc1)NCCS(=O)(=O)N1CCN(c2ccc(F)cc2)CC1	-11.8%
COc1ccccc1NC(=O)C(=O)NCCC1CCCCN1S(=O)(=O)c1ccccc1 (stereo not given)	22.1%
C/C(=N\NC(=O)Cn1c(-c2ccccn2)nc2ccccc21)c1cccc(O)c1	3.6%
CS(=O)(=O)c1ccc(NCC2CCCO2)c([N+](=O)[O-])c1 (stereo not given)	-7.0%
O=C(CN(C(=O)c1ccc(Cl)cc1)N1C(=O)C2CCCCC2C1=O)c1ccc(Cl)cc1 (stereo not given)	4.9%
O=C(Nc1ccccc1Cl)NC1(C(=O)N2CCOCC2)CCCCC1	-2.1%
Cc1ccccc1-c1cncnc1N1CCNCC1	-1.1%

mol	VDR inh
COc1cc(C(c2c(NC(=O)c3ccco3)sc(C)c2C)N2CCOCC2)cc(OC)c1OC (stereo not given)	-0.6%
N=c1sccn1CC(=O)NCCc1ccc(Cl)cc1Cl	-3.2%
CCCCNC(=S)N/N=C/c1cc(C)ccc1C	-9.2%
CCN(CC)C(=O)Cn1c(SCC(=O)Nc2ccc(F)cc2)nc2ccccc21	0.7%
Nc1nc(CSc2nnnn2-c2ccc(Cl)cc2)nc(N2CCOCC2)n1	-7.4%
CC(=O)OC1CC2C(C)(C)C(O)C=C[C@@]2(C)C2CC[C@@]3(C)C(c4ccoc4)OC(=O)C4OC43[C@]12C (stereo not given in full)	?
COc1ccc(-n2c(N)cc(=O)nc2SCC(=O)N2CCN(c3ccccc3)CC2)cc1	-3.5%
CC(=O)N1CCOc2ccc(S(=O)(=O)N3CCCC(C)C3)cc21 (stereo not given)	6.9%
COc1cc(N/N=C(\C)c2ccc(N)cc2)nc(-c2ccccc2)n1	-18.9%
CCOc1cc2[nH]c(=S)n(CCN3CCC(C)CC3)c(=O)c2cc1OCC	-2.5%
Cc1ccc(-c2csc(N/N=C/c3ccco3)n2)cc1	1.7%
CCOC(=O)c1c(NC(=O)c2nc(SC(C)C)ncc2Cl)sc2c1CCCC2	-11.0%
CCCCOc1cccc(C2/C(=C(\O)c3ccc4c(c3)OCCO4)C(=O)C(=O)N2CCN2CCOCC2)c1 (stereo not given)	5.6%
CCNC(=S)N1CCC(Cc2ccccc2)CC1	4.1%
COC(=O)CCCC1=CC2=C(c3ccccc3)C(=O)C(C)(OC(=O)C3CCCC3)C(=O)C2=CN1CC(C)C (stereo not given)	?

mol	VDR inh
CCS(=O)(=O)N1CCc2cc(C(=O)Nc3ccc(C(=O)OC)cc3)ccc21	7.3%
CCOc1ccc(NC(=O)CSc2nnc(-c3ccccn3)n2C)cc1	4.1%
O=C(Nc1ccccc1)N(Cc1ccc(Cl)cc1)CC(O)C(F)(F)F (stereo not given)	-6.3%
C/C(=N\NC(=O)CNc1ccc(F)cc1)c1cc2ccccc2o1	-0.7%
Cc1ccc(OCC(=O)N2CCCCCCC2)cc1C	-13.3%
CCOc1ccc(NS(=O)(=O)c2ccc(C(=O)NCCN3CCOCC3)cc2)cc1	-1.9%
CC1(C)NC(=O)N(CC(O)COc2cc3ccccc3cc2C(=O)N2CCCCC2)C1=O (stereo not given)	7.7%
COc1ccc(Cc2nnc(NC(=O)c3ccco3)s2)cc1	-10.7%
COc1ccccc1C1CC(=O)N(c2cccc(C(F)(F)F)c2)C2=C1C(=O)OC2 (stereo not given)	3.5%
O=C(CN1C(=O)C2CC=CCC2C1=O)N1CCN(c2ccc([N+](=O)[O-])cc2)CC1 (stereo not given)	4.0%
COc1ccc(S(=O)(=O)NCc2cccnc2)cc1NC(=O)c1ccccc1	-10.2%
CC1=C(C(=O)OC(C)(C)C)C(c2ccc3ccccc3c2)NC(=O)N1C (stereo not given)	-17.7%
CCN(C(=O)CSc1nnc(-c2ccc(OC)cc2)n1N)c1c(N)n(Cc2ccccc2)c(=O)[nH]c1=O	-5.1%
CCOC(=O)c1ccccc1NC(=O)CSc1nnc(COc2ccccc2C)n1C	-0.4%
CCN(Cc1ccccc1)C(=O)c1cccc(OC2CCN(C(=O)C3CC3)CC2)c1	1.9%

mol	VDR inh
COc1cccc(Cn2cnc3c(NS(=O)(=O)c4ccc(Cl)cc4Cl)c(C)c(C)cc32)c1	1.3%
COc1cccc(CN(C)C(=O)c2ccc(OCC(=O)Nc3cccc(C(F)(F)F)c3)c(OC)c2)c1	-10.4%
COc1ccc(N2CCN(C(c3cccs3)C(C)NS(=O)(=O)c3ccccc3)CC2)cc1 (stereo not given)	-10.8%
CN(c1ccccc1C(=O)Nc1ccccc1-c1ccccc1)S(C)(=O)=O	9.2%
Cc1ccc(C)c(OCC(=O)Nc2ccc3c(c2)OCO3)c1	-8.3%
O=C(COc1ccc(-n2cnnn2)cc1)NC(=O)NCc1ccccc1	15.1%
N#Cc1nc(COc2ccc(F)cc2)oc1N1CCCCC1	-13.5%
O=C1Nc2cc(Cl)c(Cl)cc2N(O)N1c1cc(Cl)cc(Cl)c1	-7.9%
O=C(OCC(=O)N1CCCC1)c1c2c(nc3ccccc13)CCCCC2	-10.3%
O=c1c(C=Nc2ccc(Cl)cc2)c[nH]n1-c1cccc(Cl)n1	-6.4%
Cc1sc2ncnc(OCC(=O)N3CCN(C(=O)c4ccco4)CC3)c2c1C	9.3%
O=C(CN(C(=O)CCC(=O)Nc1ccccn1)c1cccc(F)c1)NCc1ccc2c(c1)OCO2	-18.9%
S=c1[nH]nc(Nc2ccc(Cl)cc2)s1	?
COCc1cc(=O)n2[nH]c(-c3ccc(C)cc3)cc2n1	13.2%
Cc1cc(C)cc(NC(=O)CCS(=O)(=O)c2cc3c4c(c2)CCN4C(=O)CC3)c1	4.3%
CCn1c(=O)c2c(nc3n2CCCN3Cc2ccccc2)n(C)c1=O	-24.2%
O=C(Cn1cc(C(F)(F)F)ccc1=O)N/N=C/c1cccc(Cl)c1	5.5%

An excerpt. The share of hits here may be higher or lower than overall.
